Menin-MLL FL inh: inhibitors of human menin-MLL interaction, wild-type MLL peptide | Fluorescence polarization, fluorescein-MLL peptide displacement from menin | FP activity change, % at 61.4 µM | 290,000 tested, under 10 active | AID 1766; inconclusive = falling polarisation curve, or a change in total fluorescence; inactive = total fluorescence flat and polarisation flat or rising; no compound was filed as active; the % refers to the polarisation; negative = inhibition;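 also: % of control where 0% means no effect; inhibitors lower the polarisation; unlabelled MLL peptide was the positive control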
gsp antagonist: antagonists of gsp mutant (McCune-Albright syndrome); gsp-mutant cells, cAMP HTRF, 30 min; control for the full effect not named in the record; Potency, µM (doses to about 76.9 µM), for inactives: at the highest dose activity change, negative = inhibition, usual class: inhibitors; 0.4% of 340,000 active; active = falling curve of any shape with a large fitted effect; inconclusive = falling curve, mostly with a smaller effect; inactive = flat or rising curve; cell line not stated here;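 also: intracellular cAMP measured with PDE inhibitor Ro 20-1724 present during compound exposure; potency is read from the fitted curve at half-maximal effect; % is scaled to controls: 0 for no effect and ±100 for the full control effect; nearly all actives have a fitted effect of over 65% in size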
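Cells in G418 medium, seeded 16-24 h, 37C; buffer exchange to DPBS + 1 mM CaCl2, 0.5 mM MgCl2, 0.05% BSA; cpds in DMSO + […] (300 uM stock), 30 min 37C; HTRF cAMP detection.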
ClpP mod: qHTS Assay for Activators of ClpP | ATP-dependent Clp protease proteolytic subunit (Bacillus subtilis (strain 168)), P80244 | AID 651965, 2013 | 1.9% of 340,000 active | Potency, µM (titrated, usually from 57.5 µM), for inactives: at the top dose activity change, negative = active | purified B. subtilis ClpP, FRET peptide cleavage, 20 min; active = well fitted falling curve with a large enough effect; inconclusive = small, poorly fitted or top-dose-only effect; inactive = no such curve, though single readings can be large or run the other way; also: potency is read from the fitted curve at half-maximal effect; the source files actives as falling curves though it sought activators and does not explain the sign; nearly all actives have a fitted effect of over 65% in size; many hits overshoot -100%
Target sequence (P80244 whole entry, looked up): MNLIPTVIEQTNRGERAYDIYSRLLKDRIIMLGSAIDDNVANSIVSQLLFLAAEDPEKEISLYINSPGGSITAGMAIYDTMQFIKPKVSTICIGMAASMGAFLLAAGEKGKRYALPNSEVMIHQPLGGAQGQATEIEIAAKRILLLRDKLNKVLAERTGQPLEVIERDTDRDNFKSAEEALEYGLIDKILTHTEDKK
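FRET quenching reversal measured ClpP activation: 10 microg/mL B. subtilis ClpP at pH 8 with the FRET-FV decapeptide, read at 430 nm after 320 nm excitation. The 20-min minus 0-min signal was scaled between DMSO/no-enzyme wells and ADEP (5.8 microM final).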
TRPML1 inh: human mucolipin-1 channel inhibition; TRPML1-inducible cells, Ca2+ dye fluorescence, FDSS; active compounds read low; inhibition of EC80 agonist-evoked calcium signal; activity change, negative = inhibition, % (no concentration beside the values); 0.02% of 390,000 active; AID 624415; in the data active means activity change below about -50%; inconclusive means about -30% to -50%; inactive means above about -30%;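 also: stimulus is agonist 54-4 at its EC80 concentration; % is scaled to controls: 0 for no effect and ±100 for the full control effect; compound concentration not given in the record; the text of the record puts the active cut at -80%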
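Calcium fluorescence in TRPML1-DL cells induced overnight with Tet: a 110 s read after compound pin addition, then a 110 s antagonist read after challenge with 54-4 at 4 uM final (EC80).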
TRPV1 potentiator: potentiators of human vanilloid receptor 1 (TRPV1); TRPV1-expressing cells, Fluo-8 calcium influx, capsaicin EC20 potentiation; host cell line not named in the record; control for the full effect not named in the record; 0.02% of 320,000 active; AID 540277; potentiation, % at 8.33 µM; Q8NER1; active means potentiation above 80%; inconclusive means 30% to 80%; inactive means below 30%; also: 0% is about no effect
Target sequence (Q8NER1 whole entry, looked up): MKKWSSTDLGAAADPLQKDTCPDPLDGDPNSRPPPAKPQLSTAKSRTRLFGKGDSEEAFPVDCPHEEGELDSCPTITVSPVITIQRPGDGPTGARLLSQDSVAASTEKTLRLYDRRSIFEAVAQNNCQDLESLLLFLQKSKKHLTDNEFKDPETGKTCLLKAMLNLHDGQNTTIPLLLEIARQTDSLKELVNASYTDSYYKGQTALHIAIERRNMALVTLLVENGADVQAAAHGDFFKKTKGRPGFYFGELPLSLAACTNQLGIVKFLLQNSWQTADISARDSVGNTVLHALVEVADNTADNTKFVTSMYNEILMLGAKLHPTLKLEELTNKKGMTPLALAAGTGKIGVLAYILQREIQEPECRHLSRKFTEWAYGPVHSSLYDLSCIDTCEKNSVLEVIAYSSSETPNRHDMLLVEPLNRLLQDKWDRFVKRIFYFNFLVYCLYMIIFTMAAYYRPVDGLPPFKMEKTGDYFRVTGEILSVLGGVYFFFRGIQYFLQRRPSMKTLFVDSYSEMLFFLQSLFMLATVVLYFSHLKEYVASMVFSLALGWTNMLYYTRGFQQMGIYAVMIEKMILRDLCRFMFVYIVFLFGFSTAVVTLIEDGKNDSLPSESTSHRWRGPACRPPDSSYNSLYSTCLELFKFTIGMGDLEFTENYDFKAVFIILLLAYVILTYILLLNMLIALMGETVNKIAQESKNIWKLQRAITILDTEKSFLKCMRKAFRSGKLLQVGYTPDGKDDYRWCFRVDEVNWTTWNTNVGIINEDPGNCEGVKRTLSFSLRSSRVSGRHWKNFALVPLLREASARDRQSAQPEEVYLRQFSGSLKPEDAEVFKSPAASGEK
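Cells expressing TRPV1 were dye-loaded with Fluo-8 and read kinetically: 10 s baseline, 3 min after compound (agonist portion), then 2 min after EC20 capsaicin (allosteric enhancer portion). Calcium-bound dye fluorescence at 480/520 nm.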
gsp agonist: activates gsp, the McCune-Albright syndrome mutation; gsp mutant cells, cAMP HTRF, 30 min; control for the full effect not named in the record; Potency, µM (highest dose often 76.9 µM), without a hit: top-dose activation (cAMP increase), actives largely listed as activators; 0.13% of 340,000 active; AID 624287; active = well fitted activation curve with a large enough effect; inconclusive = small, poorly fitted or top-dose-only effect, or another doubt; inactive = no such curve, though single readings can be large or run the other way; cell line not stated here;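 also: phosphodiesterase inhibitor Ro 20-1724 added with compounds to block cAMP breakdown; potency is read from the fitted curve at half-maximal effect; nearly all actives have a fitted effect of over 60% in size; about a fifth of the inactives were tested at one dose only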
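Cells stably selected in G418 were plated at 2000/well, grown 16-24 hr, then given compounds in DMSO with the PDE inhibitor […] (300 uM solution added) for 30 min at 37C; cAMP was read by HTRF.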
Sfp PPTase inh: Sfp phosphopantetheinyl transferase inhibition | AID 1490 | Q9F4F7 | Potency, µM, for inactives: max response, negative = inhibition, hits mostly inhibitors | 3.5% of 310,000 active | Biochemical Sfp PPTase activity, qHTS; active = well fitted inhibition curve with a large enough effect; inconclusive = small, poorly fitted or top-dose-only effect, or another doubt; inactive = no such curve, though single readings can be large or run the other way;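 also: the enzyme is Sfp with the accession as filed and its product quenches rhodamine fluorescence; potency is read from the fitted curve at half-maximal effect; 0% = enzyme reaction without inhibitor and -100% = no enzyme wells; top concentration of the series not given in the record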
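Compounds were incubated with enzyme (final 15 nM) for 15 min at room temperature before substrate addition started the reaction. Fluorescence at 525 nm excitation, 598 nm emission was recorded immediately and after 30 minutes.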
* = called active by the depositor; ? = inconclusive; . = no result given; [ ] = dose if it differs, or a comment. Random draw from the library (roughly 4.9% active in at least one column).

entry	structure	Menin-MLL FL inh	gsp antagonist	ClpP mod	TRPML1 inh
1	C[C@H](CO)N1C[C@H](C)[C@H](CN(C)S(=O)(=O)c2ccc3c(c2)OCCCO3)OCc2cnnn2CCCC1=O	.	.	-0.3%	-16
2	COc1cc2[nH]cc(C(=O)NCCc3ccccc3)c(=O)c2cc1OC	0.6	-14%	?	6
3	O=C(Nc1cccc(S(=O)(=O)N2CCCC2)c1)c1cncc(Br)c1	.	-3%	-2.8%	-1
4	COc1ccc(-c2nc(CN3CCC(C(=O)N4CCOCC4)CC3)c(C)o2)cc1OC	.	19%	-20%	-4
5	NC(=O)C1CCN(C(=O)CCn2c(=O)oc3ccccc32)CC1	.	8%	0.1%	5
6	COC(=O)c1[nH]c2cc(C)ccc2c1NC(=O)CN1CCc2cc(OC)c(OC)cc2C1	-0.3	-17%	?	-14
7	O=C(NCCCn1ccnc1)/C(=C\c1ccccc1F)NC(=O)c1ccccc1	.	1%	.	10
8	Cc1ccc(-n2c(C)nc3c(cnn3-c3ccc(C)c(C)c3)c2=O)cc1C	0.6	1%	-6.2%	90
9	O=C(c1cnsn1)N1CCN(c2ccccc2)CC1	4.2	-7%	0.1%	-18
10	CCOC(=O)c1ccccc1NC(=O)CSc1ccc(-c2cccnc2)nn1	0.4	-14%	-1.5%	-2
11	OCC[C@H]1C[C@@H](O)[C@H](O)[C@]2(OCc3ccccc32)O1	.	7%	0.0%	24
12	Cc1ccc(C2C(C#N)=C(N)SC(N)=C2C#N)cc1	?	9%	-6.7%	8
13	COc1ccc([N+](=O)[O-])cc1NC(=O)c1ccc(N(Cc2ccccc2C)S(C)(=O)=O)cc1	3.3	-32%	-1.4%	-4
14	CC(OC(=O)C1=COCCO1)C(=O)Nc1cc(S(=O)(=O)N2CCCCC2)ccc1Cl (configuration not stated)	3.3	-2%	.	-21
15	CCc1ccccc1NC(=O)C1CCN(S(=O)(=O)c2ccc3c(c2)N(C(C)=O)CCO3)CC1	1.4	3%	0.0%	19

entry	TRPV1 potentiator	gsp agonist	Sfp PPTase inh
1	.	29%	.
2	17	7%	8%
3	.	?	.
4	3	16%	13%
5	-3	-20%	.
6	-2	4%	-2%
7	8	?	10%
8	-9	-16%	-19%
9	10	5%	8%
10	?	18%	-14%
11	-12	.	.
12	0	?	-22%
13	4	-16%[15.4 µM]	23%
14	-11	-13%[15.4 µM]	18%
15	15	3%	13%

(next part)
entry	structure	Menin-MLL FL inh	gsp antagonist	ClpP mod	TRPML1 inh
16	CC1CCCCN1c1nc2nonc2nc1N1CCCCC1C (configuration not stated)	3.4	-34%	-5.9%	27
17	CCCCNC(=O)c1ccc(CS(=O)(=O)c2ccc(OC)cc2)o1	3.5	5%	-0.9%	-13
18	Cc1ccc(N2CC(C(=O)OCc3nnc(-c4ccccc4)o3)CC2=O)cc1 (configuration not stated)	.	-12%	?	9
19	COC(=O)c1cc(=O)n(C2CC2)c(=NC2CC2)s1	0.9	0%	-2.3%	7
20	O=C(O)c1ccc(/C=C2\SC(=S)N(NC(=O)c3ccccc3)C2=O)cc1	?	-8%	0.8%	-2
21	Cc1cc(C)n(CC(=O)n2c3ccccc3c3ccccc32)n1	1.8	6%	-2.0%	-7
22	CS(=O)(=O)Nc1cccc(C2=NN(S(=O)(=O)c3ccccc3)C(c3cccs3)C2)c1 (configuration not stated)	9.4	-16%	-0.2%	-1
23	CC1CCCCN1S(=O)(=O)c1ccccc1[N+](=O)[O-] (configuration not stated)	1.6	9%	1.0%	44
24	CCOC(=O)/C(C#N)=C/Nc1cc(F)ccc1C	7.2	-10%	-15%	27
25	COc1ccc(NC(=O)Nc2ccc(OC)c(OC)c2)c([N+](=O)[O-])c1	4.0	-9%	-16%	-3
26	CCOc1ccc(-c2nnc3sc(-c4ccccc4OC)nn23)cc1	.	2%	-1.2%	-6
27	O=C(O)CCn1cc(/C=C2\SC(=S)NC2=O)c(-c2ccccc2)n1	?	-13%	.	45
28	CCCCSc1nnc([C@@H]2CCCN2C(=O)OC(C)(C)C)o1	-0.9	-2%	1.1%	-1
29	O=C(O)CCC(=O)Nc1ccc(OCC(=O)O)cc1	6.5	6%	-3.6%	-6
30	COC(=O)[C@@]1(Cc2ccc(OC)cc2)[C@H]2c3cc(C(=O)N4CCCC4)n(Cc4ccc(OC(F)(F)F)cc4)c3C[C@H]2CN1C(=O)c1ccccc1	12	.	3.5%	.

entry	TRPV1 potentiator	gsp agonist	Sfp PPTase inh
16	-21	1%	8%
17	?	-6%	-23%
18	-4	20%[15.4 µM]	.
19	-5	1%	21%
20	-8	?	4%
21	6	-81%[inhibitor]	3%
22	2	11%	13%
23	2	4%	8%
24	-6	4%	8%
25	-2	4%	-9%
26	.	10%	.
27	2	-6%	7%
28	-2	-34%[inhibitor]	3%
29	8	3%	3%
30	.	.	6%

(list continues)
entry	structure	Menin-MLL FL inh	gsp antagonist	ClpP mod	TRPML1 inh
31	COc1ccc(CCN=C(N)NS(=O)(=O)c2ccc(C)cc2)cc1	1.1	0%	-3.4%	-9
32	O=C(CCc1nc2ccccc2[nH]1)Nc1ccccc1	0.7	5%	3.6%	-1
33	C=CCOc1ccc(C(=O)CC)cc1OC	5.8	13%	.	-9
34	CCOC(=O)c1c(C)[nH]c(C(=O)NCCc2ccc(OC)c(OC)c2)c1C	2.7	0%	.	9
35	O=C(Cn1c(-c2ccccc2)noc1=O)Nc1ccc(N2CCCCCC2)cc1	8.6	2%	0.3%	4
36	O=C1c2ccccc2NC2CCCCC12 (configuration not stated)	0.5	-1%	-20%	-7
37	Cc1ccc(C(=O)CC2(O)C(=O)Nc3ccccc32)s1 (configuration not stated)	-1.0	12%	1.6%	-6
38	CC(=O)Nc1ccc(C(=O)NC(C)c2ccc(-n3ccnc3)cc2)cc1 (configuration not stated)	.	12%	-1.4%	2
39	COc1ccc(-c2cc3ccccc3oc2=O)cc1NC(=O)c1cccnc1	1.1	-6%	-18%	-10
40	Cc1cc(NC(=O)c2cccc(S(=O)(=O)N3CCOCC3)c2)c2ccccc2n1	5.3	-14%	-0.7%	-9
41	COc1ccc2cc(CCNC(=O)c3ccc(Br)o3)c(=O)[nH]c2c1	2.9	-7%	-28%	-9
42	COC(=O)c1ccc(OC(=O)c2ccco2)cc1	-1.6	6%	-14%	9
43	COc1cc(C2NC(=O)NC(C)=C2C(=O)OC(C)(C)C)ccc1OCC(=O)O (configuration not stated)	3.9	4%	-4.3%	-1
44	O=C(O)c1ccc(C=NN2CCCCCC2)cc1	.	-25%	?	-3
45	CCn1nnc(NC(=O)c2cc3ccccc3o2)n1	4.6	7%	-1.6%	-7

entry	TRPV1 potentiator	gsp agonist	Sfp PPTase inh
31	?	-31%[inhibitor]	-2%
32	-5	-1%	12%
33	8	-19%[15.4 µM]	-14%
34	5	10%	13%
35	-12	-12%	11%
36	1	7%	9%
37	-2	-34%[inhibitor]	26%
38	3	-30%	21%
39	9	10%	10%
40	-2	20%	9%
41	25	-8%	1%
42	-20	1%[15.4 µM]	-7%
43	-2	-5%	6%
44	.	?	.
45	-11	-3%	15%

The list goes on:
entry	structure	Menin-MLL FL inh	gsp antagonist	ClpP mod	TRPML1 inh
46	O=S(=O)(Cc1ccccc1)NCCc1cccc(Cl)c1	-6.4	-8%	.	-6
47	CCc1cc(=O)oc2c(C)c(OC(C)C(=O)NCC3CCC(C(=O)O)CC3)ccc12 (configuration not stated)	-3.9	-3%	4.8%	.
48	COc1ccc(OC)c(N(CC(=O)NC2CCCCCC2)S(=O)(=O)c2ccc(C)cc2)c1	.	-23%	0.9%	9
49	CC(=O)N1CCc2cc(S(=O)(=O)CCC(=O)N3CCN(c4cc(C)ccc4C)CC3)ccc21	2.3	0%	-0.8%	-6
50	Clc1ccc(CSc2nnc(-c3ccncc3)o2)cc1	-1.7	13%	-3.5%	35

entry	TRPV1 potentiator	gsp agonist	Sfp PPTase inh
46	-8	-50%[inhibitor]	8%
47	-9	.	13%
48	16	-5%[15.4 µM]	17%
49	-1	19%	-8%
50	-16	31%	3%

Some of the entries above in another layout:
item	molecule	Menin-MLL FL inh	gsp antagonist	ClpP mod	TRPML1 inh	TRPV1 potentiator	gsp agonist	Sfp PPTase inh
1	C[C@H](CO)N1C[C@H](C)[C@H](CN(C)S(=O)(=O)c2ccc3c(c2)OCCCO3)OCc2cnnn2CCCC1=O	.	.	-0.3%	-16	.	29%	.
2	COc1cc2[nH]cc(C(=O)NCCc3ccccc3)c(=O)c2cc1OC	0.6	-14%	?	6	17	7%	8%
3	O=C(Nc1cccc(S(=O)(=O)N2CCCC2)c1)c1cncc(Br)c1	.	-3%	-2.8%	-1	.	?	.
4	COc1ccc(-c2nc(CN3CCC(C(=O)N4CCOCC4)CC3)c(C)o2)cc1OC	.	19%	-20%	-4	3	16%	13%
5	NC(=O)C1CCN(C(=O)CCn2c(=O)oc3ccccc32)CC1	.	8%	0.1%	5	-3	-20%	.
6	COC(=O)c1[nH]c2cc(C)ccc2c1NC(=O)CN1CCc2cc(OC)c(OC)cc2C1	-0.3	-17%	?	-14	-2	4%	-2%
7	O=C(NCCCn1ccnc1)/C(=C\c1ccccc1F)NC(=O)c1ccccc1	.	1%	.	10	8	?	10%
8	Cc1ccc(-n2c(C)nc3c(cnn3-c3ccc(C)c(C)c3)c2=O)cc1C	0.6	1%	-6.2%	90	-9	-16%	-19%
9	O=C(c1cnsn1)N1CCN(c2ccccc2)CC1	4.2	-7%	0.1%	-18	10	5%	8%

Screening data as filed in PubChem.
